# Rango-impB inh: prevents formation of the Rango-importin beta complex. Q14974. Potency, µM (top dose mostly 92.2 µM), inactives show at the highest dose inhibition of complex formation. 0.031% of 340,000 active. Rango CFP/YFP FRET sensor + importin beta, 45 min; active = rising FRET ratio curve, often small or poorly fitted; inconclusive = mostly compound fluorescence or quenching in the first reads; inactive = flat curves in all reads;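 further: potency means the concentration at half of the fitted maximal effect; 0% = DMSO wells and 100% = buffer wells lacking importin beta; nearly all actives have a fitted effect of over 15% in size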
#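 FRET biosensor (snurportin 1 IBB flanked by EYFP and cerulean), 50 nM, with compound 5 min, then 0.125 microM importin beta in PBS, 1 mM DTT, 0.02% Tween-20, 0.1% BSA. CFP/YFP ratio read after 45 min at room temperature; pre-read flags interference.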
# GLA inh pH 4.5: blocks human alpha-galactosidase A at pH 4.5 | 230,000 tested, under 10 active | purified enzyme, 4-MU-alpha-Gal fluorescence, pH 4.5 | activity change, negative = inhibition, % at 105 µM; inconclusive = small, poorly fitted or top-dose-only inhibition, or a rising curve; inactive = flat fitted curve, though single readings scatter; no compound was filed as active;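 further: 0% = full activity with enzyme and -100% = basal without enzyme; dose as in the result columns while the protocol names 77 µM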
# Target sequence (P06280 whole entry, looked up): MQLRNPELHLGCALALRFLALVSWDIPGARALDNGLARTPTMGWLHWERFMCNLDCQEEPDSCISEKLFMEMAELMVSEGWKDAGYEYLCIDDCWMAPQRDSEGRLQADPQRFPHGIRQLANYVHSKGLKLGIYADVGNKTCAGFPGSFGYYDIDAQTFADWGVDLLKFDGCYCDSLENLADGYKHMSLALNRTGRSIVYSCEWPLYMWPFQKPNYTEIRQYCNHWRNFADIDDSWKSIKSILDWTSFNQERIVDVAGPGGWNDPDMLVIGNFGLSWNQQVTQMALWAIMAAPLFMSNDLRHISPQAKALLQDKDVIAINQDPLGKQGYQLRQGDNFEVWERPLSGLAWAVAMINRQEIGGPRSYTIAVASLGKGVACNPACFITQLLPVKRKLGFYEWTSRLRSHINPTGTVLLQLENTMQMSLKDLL
# Rango release inh: inhibitors of RanGTP-induced Rango-importin beta complex dissociation; Biochemical FRET Rango-importin beta, RanGTP-induced dissociation; Potency, µM (doses to about 46.1 µM), for inactives: at the highest dose activity change, negative = inhibition; 0.071% of 340,000 active; active means falling FRET ratio curve, often poorly fitted, with flat reads before Ran was added; inconclusive means other falling curves, or compound fluorescence or quenching; inactive means flat or rising ratio curve;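 further: potency means the concentration at half of the fitted maximal effect; % of control where 0% means no effect; nearly all actives have a fitted effect of over 45% in size; -100% = wells without RanGTP and RCC1; the record marks most hits as doubtful in a second field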
#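 Rango/importin beta premix (0.1/0.25 uM final), PBS + 1 mM DTT + 0.02% Tween-20 + 0.1% BSA; cpd 5 min RT; FRET pre-read; + RanGTP-RCC1 (0.6 uM Ran, 2 mM GTP, 0.2 uM RCC1); 45 min RT; FRET post-read, ex 430, em 486/530 nm.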
# miR-21 FLuc: raises the signal of a miR-21 reporter; 340,000 tested, under 10 active; AID 2288; HeLa miR-21 FLuc reporter, luciferase, 48 h; Potency, µM (doses to about 38.3 µM), for inactives: at the top dose reporter change, positive = more light; active = well fitted rising curve with a large enough effect; inconclusive = small, poorly fitted or top-dose-only effect; inactive = no such curve, though single readings can be large or run the other way;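 further: % of control where 0% means no effect; miR-21 action dims this reporter so a rising signal means less miR-21 action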
#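 Compounds were titrated across several concentrations (up to approximately 40 uM) and incubated 48 hours with HeLa miR-21-FLuc reporter cells (miR-21 target sequence downstream of FLuc, endogenous miR-21). Readout was firefly luciferase luminescence after lytic detection reagent.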
# An asterisk follows results filed as active; ? = inconclusive; nt = no result given; & = joins results of further samples. Only part of the results is shown; count on the stated rates, not on these rows.
entry | Structure | Rango-impB inh | GLA inh pH 4.5 | Rango release inh | miR-21 FLuc
1 | COC(=O)C1=C(c2c(C)noc2C)C[C@@H]2CC[C@H]1N2C(=O)NC(C)C | 1.1% | nt | -15% | nt
2 | CCCCn1c(=O)c(C(=O)NCc2ccc(Cl)cc2)c(O)c2ccccc21 | -5.0% | nt | -8% | 2%
3 | Brc1ccccc1 | -1.3% | -6 | 5% | 1%
4 | CCCCCn1c(=O)c(C(=O)Nc2nc3ccccc3[nH]2)c(O)c2ccccc21 | -1.4% | -6 | -10% | -8%
5 | CN(C)c1ccc(P(=S)(N(C)C)N(C)C)cc1 | 0.3% | 4 | -3% | -3%
6 | Cc1ccc(C(=O)N/C(=C\Cl)P(=O)(c2ccccc2)c2ccccc2)cc1 | -2.1% | 0 | 16% | -2%
7 | C[C@@H]1C(=O)O[C@H]2CC34[C@H]5C[C@@H](C(C)(C)C)[C@]36[C@@H](OC(=O)[C@@H]6O)O[C@@]4(C(=O)O5)[C@]21O (stereo partly drawn) | -3.9% | nt | 20% | nt
8 | OC1(CN2CCOCC2)C2CC3CC(C2)CC1C3 (stereo not drawn) | -4.2% | 0 | -3% | -3%
9 | Cc1nn(Cc2ccccc2)c(C)c1C(=O)OCC(=O)NC1CCS(=O)(=O)C1 (stereo not drawn) | -0.1% | -1 | -3% | -10%
10 | CC(=O)OC1N=C(c2ccccc2)c2cc(Br)ccc2NC1=O (stereo not drawn) | -2.0% | -2 | ? | -4%
11 | COC(=O)C1=C(c2cccc(OC)c2OC)C[C@@H]2CC[C@H]1N2C(=O)NCc1ccccc1 | 0.8% | nt | 33% | nt
12 | O=C(NC1CN2CCC1CC2)c1cccc(Cl)c1 (stereo not drawn) | -0.9% | nt | -8% | 3%
13 | CC(C)CCC1(CCc2ccncc2)C(=O)NC(=O)NC1=O | 2.9% | 1 | 10% | 1%
14 | O=c1[nH]c(O)c(C=NC2CCCCC2)c(=O)[nH]1 | -2.2% | 0 | -4% | -11%
15 | CC1=NCCc2c1[nH]c1ccccc21 | ? | nt | ? | 2%
16 | O=c1[nH]c(=O)n(CCC2=CCCCC2)c(O)c1C=NCCCn1ccnc1 | -1.1% | 7 | -11% | -2%
17 | CC(C)(C)C1(CCO)C(=O)NC(=S)NC1=O | 0.3% | nt | 9% | nt
18 | CCCCOC(=O)CCN1C(=O)/C(=C2\SC(=S)N(CCC(=O)OCCCC)C2=O)SC1=S | -0.9% | 3 | -6% | -2%
19 | O=C(O)C1C2c3ccccc3C(c3ccccc32)C1C(=O)Nc1ccccc1 (stereo not drawn) | 0.2% | 1 | 4% | 3%
20 | CCC(=NCCc1ccccc1)c1c(O)[nH]c(=O)[nH]c1=O | 0.3% | 0 | -3% | -33%
21 | CCOC(=O)c1cc(C(O)(C(=O)OC)C(F)(F)F)c(/N=C/N(C)C)o1 (stereo not drawn) | -0.4% | -1 | 1% | -9%
22 | COc1ccc(C(=O)C2CCCN(Cc3cnc(C)s3)C2)c(OC)c1 (stereo not drawn) | 1.4% | 4 | 13% | -2%
23 | CCOC(=O)C1CCCN(C(=O)c2ccc3oc(Cc4ccccc4)nc3c2)C1 (stereo not drawn) | -1.4% | nt | -3% | -47%
24 | COc1cccc(C(=O)C2CN(C)CC2c2ccc(Cl)cc2)c1 (stereo not drawn) | -2.7% | -1 | -2% | 3%
25 | Cc1cc(-c2n[nH]c(=S)n2CC(C)C)cs1 | -3.2% | -9 | 12% | -2%
26 | C[C@]1(O)CCC2C3CC[C@H]4C[C@@H](OC(=O)CNC(=O)CN)CC[C@]4(C)C3CC[C@@]21C (stereo partly drawn) | 7.5% | nt | -1% | nt
27 | CCN(CC)C(=O)c1ccc(NC(=O)c2cccc(F)c2)cc1 | 2.6% | 2 | 11% | -41%
28 | CCCCN1C(=O)/C(=C\c2ccco2)C(=O)N(CCc2ccccc2)C1=O | -3.3% | -15 | -22% | 0%
29 | CC(NCc1ccccc1Cl)C(O)c1ccccc1 (stereo not drawn) | 0.9% | -29 | 1% | -20%
30 | CN[C@H](C)[C@H](O)c1ccccc1 | -0.2% | -5 | 1% | 1%
31 | COc1ccc(-n2c(O)c(C(C)=Nc3ccc4c(c3)CCC4)c(=O)[nH]c2=O)cc1 | -1.8% | -3 | 5% | 2%
32 | CC(C)Oc1ccc(CC2(CCc3ccncc3)C(=O)NC(=O)NC2=O)cc1 | 4.0% | 3 | 6% | 7%
33 | NCC(CC(=O)O)C1CCCCC1 (stereo not drawn) | 1.0% | 2 | -9% | -8%
34 | Cc1cc(C)n2nc(C)[n+](C)c2n1 | -5.4% | -6 | 0% | 3%
35 | CN1CCC(N(C)Cc2cccnc2)CC1 | 12% | 3 | 15% | -3%
36 | CCCC1(CCO)C(=O)NC(=S)NC1=O | 0.4% | nt | 1% | nt
37 | CN(C)CC1CSCCC1(O)c1ccccc1Cl (stereo not drawn) | 3.5% | 3 | -8% | 1%
38 | Cn1c(O)c(/C=N/N2CCOCC2)c(=O)n(-c2ccccc2)c1=S | 5.6% | 3 | -5% | -1%
39 | COc1ccc(/C=C/C(=O)NC(=S)N2C[C@H]3C[C@H](C2)c2cccc(=O)n2C3)cc1OC | 0.0% | nt | 14% | -4%
40 | CCN(CC)CCCN=Cc1c(O)n(CCc2ccc(F)cc2)c(=O)[nH]c1=O | -1.0% | -25 | 0% | -4%

# The last two entries of the section above open the next one:
entry | Structure | Rango-impB inh | GLA inh pH 4.5 | Rango release inh | miR-21 FLuc
39 | COc1ccc(/C=C/C(=O)NC(=S)N2C[C@H]3C[C@H](C2)c2cccc(=O)n2C3)cc1OC | 0.0% | nt | 14% | -4%
40 | CCN(CC)CCCN=Cc1c(O)n(CCc2ccc(F)cc2)c(=O)[nH]c1=O | -1.0% | -25 | 0% | -4%
41 | CN1CCN(CC#CCOc2ccc(Cl)cc2)CC1 | 0.7% | nt | 1% | -24%
42 | COc1ccc(CN2CCN(c3ccccc3F)CC2)cc1O | ? | -1 | 4% | -5%
43 | Cc1ccc(N2C(=O)NC(=O)/C(=C/C=C/c3ccco3)C2=O)cc1 | ? | 0 | ? | 17%
44 | C=CCn1c(O)c(C(C)=Nc2ccc(C(=O)OCC)cc2)c(=O)[nH]c1=O | -2.1% | -8 | 10% | -4%
45 | COc1cc2c(cc1O)CC1c3c(cc(O)c(OC)c3-2)CCN1C (stereo not drawn) | 0.2% | -5&-5&2&0 | -14% | 7%&5%
46 | CCC1([N+](=O)[O-])COP(=O)(NCc2cccnc2)OC1 (stereo not drawn) | -2.3% | nt | 3% | nt
47 | COc1cc(OC)c(OC)cc1CN1CCN(C(=O)COc2ccc3ccccc3c2)CC1 | -0.4% | nt | 0% | 3%
48 | CC(C)[C@H]1C(=O)N2CCC[C@H]2[C@]2(O)O[C@](NC(=O)[C@@H]3C=C4c5cccc6[nH]cc(c56)C[C@H]4N(C)C3)(C(C)C)C(=O)N12 | ? | nt | ? | -15%
49 | Cn1cc(C(=O)Cc2ccccc2)c2ccccc21 | 2.2% | -2 | -9% | -22%
50 | [Cl][Pt+2][Cl].[NH-]C1CCCCC1[NH-] (stereo not drawn) | 1.1% | nt | -2% | nt
51 | O=C(Nc1ccc(F)cc1)c1c(O)c2c(n(Cc3ccccc3)c1=O)CCCC2 | 1.6% | 2 | 0% | 1%

# Just miR-21 FLuc, GLA inh pH 4.5 and Rango release inh, for two of the compounds above:
entry	molecule	miR-21 FLuc	GLA inh pH 4.5	Rango release inh
13	CC(C)CCC1(CCc2ccncc2)C(=O)NC(=O)NC1=O	1%	1	10%
2	CCCCn1c(=O)c(C(=O)NCc2ccc(Cl)cc2)c(O)c2ccccc21	2%	nt	-8%

# Single records, as listed above.
# Cn1cc(C(=O)Cc2ccccc2)c2ccccc21 is listed with Rango-impB inh: 2.2%; GLA inh pH 4.5: -2; Rango release inh: -9%; miR-21 FLuc: -22%
# [Cl][Pt+2][Cl].[NH-]C1CCCCC1[NH-] (stereo not drawn) is listed with Rango-impB inh: 1.1%; GLA inh pH 4.5: nt; Rango release inh: -2%; miR-21 FLuc: nt
# O=C(Nc1ccc(F)cc1)c1c(O)c2c(n(Cc3ccccc3)c1=O)CCCC2 is listed with Rango-impB inh: 1.6%; GLA inh pH 4.5: 2; Rango release inh: 0%; miR-21 FLuc: 1%

# Source: PubChem BioAssay (National Center for Advancing Translational Sciences (NCATS))
